Bioassay records from PubChem.
Arbovirus inh = antivirals against arbovirus infection, primary screen, cell-based, full library, 10K replicate subset. arbovirus infection cell-based antiviral screen. inhibition, % at 10 µM. actives 0.37% (n = 200,000). AID 1251, 2008;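 active = inhibition from about 30%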;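 also: bluetongue infection of BSR cells; cell survival read as ATP light after 72 h; 0% = infected wells without compound and 100% = uninfected wells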
Mtb bLac sens = beta-lactam sensitization of Mtb H37Rv, H37Rv; M. tuberculosis H37Rv growth with meropenem, percent inhibition; hits of this screen are not shown here; inhibition, % at 25 µM; actives 0.27% (n = 330,000); AID 434955, 2010;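 active = about 74% or more and at least 40 points above the plate without the antibiotic, then above 30% in a dose series; inconclusive = first-round hits that could not be retested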;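 also: growth measured after seven days incubation then overnight dye step; 0% = bacteria only wells and 100% = bacteria with antibiotic; twin plates without the antibiotic show which effects depend on it; some results filed as inactive read as strong as hits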
Mtb growth = M. tuberculosis H37Rv growth inhibitors, H37Rv strain (AID 1626) | inhibition, % at 10 µM; hits with a dose series show IC50 in µM | actives 0.95% (n = 220,000) | M. tuberculosis H37Rv growth inhibition; higher % means a stronger effect;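 active = confirmed in a dose series; inconclusive = inhibition above 80% but not taken into the dose series; inactive = below 80% or under 30% at every dose of the series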;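 also: bacteria incubated seven days before Alamar blue readout; 0% = bacteria only wells and 100% = bacteria with antibiotic wells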
YopH inh = YopH tyrosine phosphatase inhibitors, primary screen, biochemical, fluorescence Ex485/Em525; YopH tyrosine phosphatase [Yersinia enterocolitica]; inhibition, %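 (about 10 µM by stock and volumes)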; actives 0.16% (n = 140,000); AID 898, 2007;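 active = inhibition of 50% or more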;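 also: controls were vehicle for no effect and minimum signal wells for full effect; inactives centre near -20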
RecA splice inh = Mtb RecA intein splicing inhibitors, primary screen, biochemical, fluorescence, HTS | cell-free RecA intein splicing | actives 0.75% (n = 290,000) | inhibition, %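 (about 9 µM by stock and volumes)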; in the data active = inhibition above about 30%; inconclusive = no clear call, values can overlap the other calls;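 also: 0% = vehicle wells and 100% = reference inhibitor control wells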
Target sequence (P9WHJ3 whole entry, looked up, canonical isoform): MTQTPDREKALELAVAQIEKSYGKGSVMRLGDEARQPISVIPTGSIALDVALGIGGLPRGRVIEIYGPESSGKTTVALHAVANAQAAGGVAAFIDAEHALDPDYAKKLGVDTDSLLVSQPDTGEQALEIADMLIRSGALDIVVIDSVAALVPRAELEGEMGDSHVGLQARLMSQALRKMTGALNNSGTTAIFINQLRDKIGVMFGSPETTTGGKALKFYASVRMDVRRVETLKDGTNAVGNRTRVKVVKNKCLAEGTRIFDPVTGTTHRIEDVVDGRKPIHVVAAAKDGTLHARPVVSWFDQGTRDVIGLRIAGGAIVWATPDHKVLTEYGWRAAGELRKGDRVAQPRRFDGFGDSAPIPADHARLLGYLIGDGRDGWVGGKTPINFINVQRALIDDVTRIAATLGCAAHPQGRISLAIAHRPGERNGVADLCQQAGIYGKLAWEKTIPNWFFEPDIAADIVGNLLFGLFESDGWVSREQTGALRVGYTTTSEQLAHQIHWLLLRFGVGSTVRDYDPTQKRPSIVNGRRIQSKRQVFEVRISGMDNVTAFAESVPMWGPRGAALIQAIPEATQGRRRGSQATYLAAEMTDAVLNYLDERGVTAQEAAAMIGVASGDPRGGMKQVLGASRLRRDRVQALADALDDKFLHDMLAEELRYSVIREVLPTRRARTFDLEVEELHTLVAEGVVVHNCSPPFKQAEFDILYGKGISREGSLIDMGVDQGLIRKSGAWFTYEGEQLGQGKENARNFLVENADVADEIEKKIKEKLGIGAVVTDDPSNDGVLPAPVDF
Arbovirus inh repeat = also measured in Arbovirus inh; calls as there; inhibition, %; measured here: 10K subset replicate screen; many hits read low in the repeat;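 first of two repeat runs on a subset; 0% = infected and 100% = uninfected wells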
An asterisk follows results filed as active; ? = inconclusive; · = no result given.

SMILES | Arbovirus inh | Mtb bLac sens | Mtb growth | YopH inh | RecA splice inh | others
O=C(CN1C(=O)C2CC=CCC2C1=O)NCc1cccs1 (stereo not drawn) | 6 | -5 | -5% | · | 3.5
COC(=O)C1=CN(c2ccc(F)cc2)C=C(C(=O)OC)C1c1cccc(Br)c1 | · | 0 | · | · | -6.5
COc1ccc(/C=C/C(=O)Nc2ccc3nc4n(c(=O)c3c2)CCCC4)cc1OC | 11 | 1 | 5% | · | -13
C=CCNC(=O)CCCOc1cc(C)ccc1C | -1 | -9 | -3% | -17 | 7.6
C=CCNc1oc(-c2ccc(OCC)cc2)nc1C#N | -1 | -1 | 7% | -8 | 1.3
CCc1ccc(NC(=O)Nc2ccc3c(c2)N(C)C(=O)CS3)cc1 | -3 | -2 | 0% | 2 | 0.3
CC(=O)Nc1ccc(NS(=O)(=O)c2ccc(-c3csc(C)n3)s2)cc1 | · | -6 | 3% | · | 0.0
CCc1cc(=O)oc2cc(OCC(=O)NCCCn3ccnc3)c(Cl)cc12 | · | 6 | · | · | -0.1
Cc1nn(-c2ccccc2)c2c1C(c1ccccc1)C(C#N)=C(N)O2 (stereo not drawn) | -2 | 8 | 7% | 6 | 54* | Arbovirus inh repeat=-1
CCN(CC)c1nc2ccccc2n(Cc2cccc(OC)c2)c1=O | · | -11 | · | · | 4.9
Cc1ccc(NNC(=S)Nc2ccc(C(C)C)cc2)c(C)c1 | -12 | 8 | 12% | -16 | 6.0
C=CCN1CN(S(=O)(=O)c2ccc(OC)cc2)c2nc3ccccc3nc21 | · | -4 | · | · | 0.7
CCNc1nc(NCC)nc(N(CC)C(N)=S)n1 | · | -9 | · | · | 0.5
O=S(=O)(/N=C(/c1ccccc1)N1CCOCC1)c1ccc(Br)cc1 | · | -3 | · | · | 3.4
CC(C)OCCCNc1nc(-c2ccccc2)nc2ccccc12 | · | 23 | · | · | 1.9
OCC(CO)(CO)N=Cc1c(O)ccc2ccccc12 | 23 | 4 | -5% | -39 | -0.6
O=C(O)CCC(=O)NCc1ccc(C(=O)O)cc1 | 8 | 10 | -10% | 16 | -1.2
COc1ccc(CCNc2nc(-c3ccco3)cc(C(F)(F)F)n2)cc1OC | 4 | -1 | -7% | -34 | ·
CCN(C(=O)COC(=O)c1ccc(F)c(S(=O)(=O)N2CCOCC2)c1)C1CCS(=O)(=O)C1 (stereo not drawn) | · | -12 | · | · | 0.0
Cc1ccc(S(=O)(=O)/N=C(/c2ccc(F)cc2)N2CCCCC2)cc1 | 3 | 7 | 6% | -26 | 9.4
COc1ccc(/C=N/Nc2cc(C)nc3ccc(Br)cc23)cc1 | · | 100 | · | · | 6.9
COC(=O)c1cc(Br)c(=O)n(CCc2ccc(F)cc2)c1 | 3 | -7 | -11% | -10 | 1.2
COc1ccc(OCCSc2nc(N)cc(=O)[nH]2)cc1 | 2 | -9 | -6% | · | -1.2
COc1ccc2c(=O)cc(C(=O)O)oc2c1 | 18 | 8 | -8% | · | -0.5
Cc1cc(NC(=O)[C@H](C)NC(=O)c2ccco2)ccc1Br | · | 1 | · | · | 2.7
O=C(c1ccc(N2CCCC2=O)cc1)N1CCCCCC1 | 4 | 2 | -2% | -1 | ·
CCOc1ccc(S(=O)(=O)NNC(=S)Nc2ccc(Br)cc2)cc1 | -3 | -10 | 0% | -2 | -0.6
COc1ccc(NC(=O)C2Cc3ccccc3CN2C(=O)c2ccccc2)cn1 (stereo not drawn) | 2 | 10 | -8% | -2 | 5.9
NC(CS(=O)O)C(=O)O (stereo not drawn) | · | -3 | -1% | · | -2.8
Cc1nnc(-c2cccc(Br)c2)c2cn(-c3cccc(Br)c3)nc12 | -3 | -6 | -6% | -29 | -0.8
Cc1ccc(-n2nc3c(=O)n(CCCC(=O)NCCc4ccccc4C)nc(C)c3c2C)cc1 | · | 2 | · | · | 1.5
CC(C)NCc1cc(Br)ccc1OCc1ccccc1 | 1 | -1 | 5% | · | -0.2
Cc1cccc(NC(=O)c2nc[nH]c2C(=O)NCC(=O)OCc2ccccc2)c1 | · | -5 | 51% | · | -3.3
CCc1ccccc1N1CC(C(=O)Nc2cc(C)on2)CC1=O (stereo not drawn) | · | -14 | · | · | 0.3
CCc1cc(=O)oc2c3c(cc(OCC(=O)NCc4cccnc4)c12)OC(C)(C)CC3 | · | -4 | · | · | 4.7
CC(C)NC(=O)c1ccc2c(c1)N(CC(=O)N1CCCCC1)C(=O)C(C)(C)O2 | · | 1 | · | · | 0.3
CN1CCN(CCCCOc2ccc(Br)cc2)CC1 | · | 5 | · | · | -2.4
COc1ccc(C(=O)NC(=S)NNC(=O)c2c(-c3ccccc3)noc2C)cc1OC | · | 24 | 4% | · | 4.5
O=C(c1nc2ccccn2c1CN1CCC(Cc2ccccc2)CC1)N1CCCC1 | -5 | -8 | 0% | · | -3.1
O=C(NCC1CCCO1)c1c(O)c2ccccc2[nH]c1=O (stereo not drawn) | -8 | 2 | -5% | -28 | -0.3
COC(=O)c1ccc(N2C(=O)C3CC=CC(C)C3C2=O)cc1 (stereo not drawn) | 1 | 0 | 3% | · | -5.0
Cn1c(=O)c2ncn(CC(=O)N/N=C/C=C/c3ccccc3)c2n(C)c1=O | 0 | 4 | -13% | · | -0.6
Cc1ccc(N=CC2=C(O)CC(c3cccc(Cl)c3)CC2=O)cc1 (stereo not drawn) | 2 | 36 | 9% | -33 | -1.7
O=C1NC(=O)C(=Cc2ccc(-c3ccc(Cl)cc3)o2)C(=O)N1 | · | 99 | · | · | -2.2
CC(C)(CNC(=O)CC1C(=O)NCCN1Cc1cccc(F)c1)N1CCOCC1 (stereo not drawn) | · | 4 | · | · | -3.1

Three entries picked at random from the list so far, as already listed:
SMILES | Arbovirus inh | Mtb bLac sens | Mtb growth | YopH inh | RecA splice inh | others
COc1ccc(C(=O)NC(=S)NNC(=O)c2c(-c3ccccc3)noc2C)cc1OC | · | 24 | 4% | · | 4.5
CCc1cc(=O)oc2c3c(cc(OCC(=O)NCc4cccnc4)c12)OC(C)(C)CC3 | · | -4 | · | · | 4.7
O=C(c1nc2ccccn2c1CN1CCC(Cc2ccccc2)CC1)N1CCCC1 | -5 | -8 | 0% | · | -3.1

The results go on.
SMILES | Arbovirus inh | Mtb bLac sens | Mtb growth | YopH inh | RecA splice inh | others
Cc1noc(C)c1C(=O)Nc1ccc(C#N)cc1 | · | -17 | · | · | -1.9
COc1ccc2c3c(c(=O)oc2c1OCC(=O)O)CCCC3 | 5 | 5 | -3% | 0 | 1.6
CC(=O)N1CCN(c2nc(C)nc3sc4c(c23)CCC(C)C4)CC1 (stereo not drawn) | -2 | -2 | 13% | -106 | 1.1
Cc1ccc(C(=O)NC(=S)Nc2ccc(NC(=O)c3cccc(Cl)c3)cc2)cc1 | -11 | -2 | 6% | -22 | -1.9
COc1cc(/C=C2/SC(=Nc3ccc(O)cc3)NC2=O)ccc1O | · | 4 | -9% | · | 0.5
CCOc1cc(/C=N/NC(=O)c2ccc(CN3CCOCC3)cc2)ccc1OC | 8 | -14 | 3% | · | -0.7
COc1ccccc1/C=C/C(=O)c1ccccc1 | · | 13 | 6% | · | 3.0
Cc1cc(C)n(-c2nc(C(=O)O)cs2)n1 | 2 | 3 | 3% | · | -0.4
C=CCOC(=O)C1C(=O)CC(C)(O)C(C(=O)OCC=C)C1c1ccc(N(C)C)cc1 (stereo not drawn) | 3 | 3 | 3% | · | 0.8
O=C(CSc1ncn[nH]1)NCc1ccc(Cl)cc1 | · | 11 | · | · | -2.0
Cc1cc(NC(=O)CCl)on1 | 14 | 97 | 1% | · | 2.5
Cc1nnc(SCC(=O)N(Cc2ccccc2)C(C)(C)C)[nH]c1=O | 14 | -2 | -4% | · | ·
Cc1ccc(NC(=O)/C=C/c2ccc([N+](=O)[O-])s2)cc1 | 4 | 99 | 46µM* | -22 | 0.3
ClCc1nnc(-c2cc3c(s2)CCCC3)o1 | -30 | · | 71% | · | 39*
Cc1ccc(Sc2ncccc2COC(=O)Nc2c(C)cccc2C)cc1 | 10 | -1 | 17% | -55 | 12
CC(NC(=O)CCCOc1ccc(Cl)cc1)c1ccccc1 (stereo not drawn) | -1 | 2 | 7% | -7 | 4.3
CN(C)c1ccc(C(c2nnnn2CCOC(=O)Nc2ccc(Cl)cc2)N2CCOCC2)cc1 (stereo not drawn) | 3 | · | 4% | -54 | 2.0
COc1ccccc1NC(=O)/C=C/C(=O)O | 4 | 3 | -6% | · | -1.5
CCCNS(=O)(=O)c1ccc(NC(=O)c2cccnc2)cc1 | 0 | -2 | -3% | -17 | -1.2
COc1ccc(-c2c(NC(=O)c3ccco3)oc3c(C)cccc3c2=O)cc1OC | · | -4 | · | · | 1.0
Cc1noc(/C=C/c2ccccn2)c1[N+](=O)[O-] | · | 91 | · | · | 0.7
COc1ccc(NC(=O)c2ccc(NC(=O)COC(=O)c3cnc(C)cn3)cc2)cc1 | · | -17 | · | · | -0.6
Cc1cc(=O)oc2cc(OCC(=O)OCC(=O)NC3CC3)ccc12 | 5 | -2 | -4% | · | ·
C=CCN(CC=C)C(=S)NCCc1ccc(OC)c(OC)c1 | -2 | -2 | 4% | -19 | 12
O=C(Oc1c(Cl)cc(Cl)c2cccnc12)c1ccco1 | -16 | 97 | 1.3µM* | -19 | 9.9
CCN1/C(=C/c2sc(-c3ccccc3C)c[n+]2C)Sc2ccccc21 | -18 | · | ? | · | -8.5
Cc1ccccc1NC(=O)N1CCN(C/C=C/c2ccccc2)CC1 | 0 | -5 | 6% | · | 3.3
Nc1nnc(Cc2ccc(Cl)c(Cl)c2)s1 | -10 | 7 | -1% | -40 | -2.4
CC(=O)N/C(=N\c1nc(C)cc(C)n1)Nc1ccc2ccccc2c1 | · | -4 | · | · | 2.9
CCCCc1nc2ccccc2n1Cc1nnc2n1-c1ccccc1SC2 | 4 | -9 | -29% | -41 | 0.7
CCOc1ccc(C)cc1S(=O)(=O)n1cnc2ccccc21 | · | -15 | · | · | 4.0
CCN(c1ccccc1)S(=O)(=O)c1cc([N+](=O)[O-])ccc1N | -11 | -2 | 6% | · | 3.1
CCSc1nc2ccccc2n1Cc1cccc([N+](=O)[O-])c1 | 10 | -2 | 5% | 10 | 1.7
Cc1ccc(S(=O)(=O)NCC(=O)N/N=C/c2ccccc2O)cc1 | -32 | -1 | -9% | · | 0.8
O=C(COn1nnc2ccc(S(=O)(=O)N3CCOCC3)cc21)NCCc1ccccc1 | · | -6 | · | · | -0.9
COc1cccc(-c2nnc(SCC(=O)Nc3cc(C)on3)o2)c1 | -10 | 99 | 5.8µM* | 34 | 16
O=c1cc(-c2ccccc2Cl)oc2c(NS(=O)(=O)c3cc(Cl)cc(Cl)c3O)ccc(O)c12 | -48 | 0 | 2% | -30 | 26
COCCCn1c(-c2ccc(S(=O)(=O)N3CCOCC3)cc2)csc1=Nc1ccccc1 | -12 | 0 | · | -5 | -6.3
CCc1c(C)sc(NC(=O)c2ccc(Br)o2)c1C(=O)OC | 18 | -4 | -3% | -11 | -7.8
Cc1ccccc1-c1cc(=O)c2c(O)cccc2o1 | · | 21 | 1% | · | 8.0
N#CCCN/N=C(/Cc1nc2ccccc2[nH]1)c1cccc(Cl)c1 | 3 | -6 | -1% | -3 | ·
COCc1ccc(C(=O)N2CCCC(C(=O)c3cc(F)ccc3F)C2)s1 (stereo not drawn) | 5 | -5 | 17% | · | -1.4
O=C(CSc1nnc(-c2cccnc2)n1CCc1ccccc1)NCc1ccccc1 | -2 | 23 | -11% | -24 | -1.8
O=[N+]([O-])c1ccc(-c2nc(=S)c3c(o2)CCCC3)cc1 | 0 | -1 | -8% | 2 | 1.9
CCc1cc2c(=O)c(-c3cnn(-c4ccccc4)c3)c(C(F)(F)F)oc2c(CN(C)C)c1O | 10 | 12 | 5% | 3 | -0.2
O=C(Nc1ccccc1C(=O)NCc1cccnc1)c1ccccc1F | · | -2 | · | · | -1.0

6 structures already listed, arranged by heavy-atom count, descending:
SMILES | Arbovirus inh | Mtb bLac sens | Mtb growth | YopH inh | RecA splice inh | others
O=C(CSc1nnc(-c2cccnc2)n1CCc1ccccc1)NCc1ccccc1 | -2 | 23 | -11% | -24 | -1.8
O=C(Nc1ccccc1C(=O)NCc1cccnc1)c1ccccc1F | · | -2 | · | · | -1.0
COc1cccc(-c2nnc(SCC(=O)Nc3cc(C)on3)o2)c1 | -10 | 99 | 5.8µM* | 34 | 16
CCc1c(C)sc(NC(=O)c2ccc(Br)o2)c1C(=O)OC | 18 | -4 | -3% | -11 | -7.8
O=[N+]([O-])c1ccc(-c2nc(=S)c3c(o2)CCCC3)cc1 | 0 | -1 | -8% | 2 | 1.9
Cc1ccccc1-c1cc(=O)c2c(O)cccc2o1 | · | 21 | 1% | · | 8.0

An excerpt; the hit share may differ from the screen's.
